Beta2AR agonist: agonists of human beta-2 adrenergic receptor inducing internalization | P07550 | Am2.2-beta2AR cells, FAP receptor internalization, flow cytometry; reference of the scale not given here | response, % (concentration not given with the values) | actives 0.43% (n = 340,000);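 active = response above a set limit, near 3 SD of response in nonfluorescent compounds, cut at about 42% in these data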;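 also: stock transfer was 100 nL into about 11 µL; a reference agonist was the positive control; negative values mostly stem from fluorescent compounds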
Ecoli growth: blocks Escherichia coli growth | OD600 absorbance (concentration not given with the values) | actives 0.21% (n = 330,000) | OD600, 23 h; stronger effect = lower value;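 active = OD600 absorbance below the run mean of sample wells minus 3.6 SD, in any replicate, cut at about 0.56 in these data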;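 also: stock transfer was 300 nL into about 60 µL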
ALR inh: inhibitors of human sulfhydryl oxidase ALR | inhibition, % (concentration not given with the values) | purified ALR, DTT oxidation, H2O2 HRP-luminol luminescence | AID 485317 | P55789 | actives 3.8% (n = 290,000);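 active = mean and each replicate at 75% or more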;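 also: stock transfer was 7.5 nL into about 7.5 µL; 0% = neutral wells and 100% = wells with inactivated enzyme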
UCH37 DUB inh: human UCH37 deubiquitinating enzyme inhibition; Q9Y5K5; purified proteasome/UCH37, Ub-AMC cleavage fluorescence; inhibition, % (no concentration beside the values); actives 0.33% (n = 330,000); AID 588478;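 active = mean of two replicates above 20%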;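 also: 0% = compound-free wells with enzyme and 100% = wells lacking proteasome; stock transfer was 100 nL into about 20 µL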
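Material: Human UCH37 enzyme supplied as purified proteasome complex | Schedule: 30 min preincubation with enzyme, 25 min cleavage at room temperature | Detection: AMC fluorescence 355/460 nm | Measure: % inhibition of Ub-AMC cleavage fluorescence | Controls: Wells without proteasome as full block, compound-free enzyme plus substrate as uninhibited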
FGF22 binding: binders of recombinant human FGF22 by thermal shift | SYPRO orange fluorescence; percent of sucrose octasulfate shift, DMSO zero | calls only at 9.99 µM | actives 1.5% (n = 340,000);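 active = melting point raised past a set limit in the mean and every replicate; three in four hits are not shown here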
LANA-H2A inh: blocks KSHV LANA binding to histone H2A/H2B. cell-free LANA-H2A/H2B peptide, fluorescence polarization. inhibition, % (test concentration not listed). actives 0.6% (n = 320,000). AID 2629; in the data active = inhibition mostly above about 10%, no sharp cut-off; inactive = mostly below about 6.7%;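 also: stock transfer was 7.5 nL into about 10 µL; 0% = median of vehicle wells and 100% = median of positive control wells; one replicate is shown; the record names a cut of 25% in any replicate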
Target sequence (Q9QR71 whole entry, looked up): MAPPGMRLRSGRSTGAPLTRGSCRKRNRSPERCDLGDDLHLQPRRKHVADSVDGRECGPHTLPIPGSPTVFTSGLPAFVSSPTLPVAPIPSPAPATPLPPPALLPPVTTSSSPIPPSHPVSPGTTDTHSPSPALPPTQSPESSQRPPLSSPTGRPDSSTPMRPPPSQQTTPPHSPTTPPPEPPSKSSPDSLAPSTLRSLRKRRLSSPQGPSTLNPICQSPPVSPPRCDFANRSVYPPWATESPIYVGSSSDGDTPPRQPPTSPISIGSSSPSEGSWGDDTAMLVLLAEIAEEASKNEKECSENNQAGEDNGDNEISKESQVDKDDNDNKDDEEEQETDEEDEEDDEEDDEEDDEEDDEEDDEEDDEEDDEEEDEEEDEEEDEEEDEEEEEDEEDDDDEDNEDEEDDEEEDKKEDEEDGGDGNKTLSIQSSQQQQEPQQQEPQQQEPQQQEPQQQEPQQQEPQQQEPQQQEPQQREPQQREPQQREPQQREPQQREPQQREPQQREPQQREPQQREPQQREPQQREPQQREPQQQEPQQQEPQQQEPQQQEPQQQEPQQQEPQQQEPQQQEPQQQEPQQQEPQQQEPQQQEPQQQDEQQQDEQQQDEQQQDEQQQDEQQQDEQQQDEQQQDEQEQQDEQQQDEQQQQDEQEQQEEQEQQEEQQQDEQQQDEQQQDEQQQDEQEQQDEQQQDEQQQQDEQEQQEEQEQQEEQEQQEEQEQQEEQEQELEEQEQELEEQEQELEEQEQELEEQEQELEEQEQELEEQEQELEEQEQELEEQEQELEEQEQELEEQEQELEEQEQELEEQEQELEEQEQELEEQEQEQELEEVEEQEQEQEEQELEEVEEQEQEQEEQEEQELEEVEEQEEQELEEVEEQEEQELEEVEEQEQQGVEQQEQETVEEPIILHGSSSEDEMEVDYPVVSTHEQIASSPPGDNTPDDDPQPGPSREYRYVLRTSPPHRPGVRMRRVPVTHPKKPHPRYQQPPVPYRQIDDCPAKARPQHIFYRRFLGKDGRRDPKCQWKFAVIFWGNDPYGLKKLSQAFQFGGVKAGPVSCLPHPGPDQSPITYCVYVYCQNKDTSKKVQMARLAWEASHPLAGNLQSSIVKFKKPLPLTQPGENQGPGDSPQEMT
HNF4A DNA FP: change in binding of human HNF4 alpha to DNA; P41235; HNF4a-FITC DNA binding, fluorescence polarization, 1 h; activity change, % at 10 µM; actives 0.3% (n = 360,000); AID 1224865; in the data active = activity change above about 30%, passing the limit was not always enough;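 also: controls were the assay level and a saturating level of protein; the project sought stronger binding though the title names inhibitors; some compounds called inactive have numbers as strong as hits; positive values seem to mean higher polarization but the record does not say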
The depositor's hits bear a star; i = inactive; . = no result given.

SMILES	Beta2AR agonist	Ecoli growth	ALR inh	UCH37 DUB inh	FGF22 binding	LANA-H2A inh	HNF4A DNA FP
CN(CC(=O)NC1CC1)S(=O)(=O)c1ccc(F)cc1	1.1	0.691	-3.5	2.2	i	3.5	-2.0
c1csc(C(c2nnnn2C2CCCC2)N2CCCC3(CCCCC3)C2)c1 (stereo unspecified)	6.3	0.733	8.6	1.9	.	-4.1	2.8
O=C1CCCCC1	1.1	0.683	-16.2	-0.5	i	-10.8	0.1
O=C(CC1C(=O)OCN1C(=O)OCc1ccccc1)OCC(=O)c1ccccc1 (stereo unspecified)	-9.3	0.73	-3.8	1.5	.	-5.3	-2.5
c1cc2ccc3ccc(-n4cnnn4)c4ccc(c1)c2c34	6.6	0.675	-17.8	-106.7	.	-1.3	6.5
N#Cc1nc(-c2cccs2)oc1NCc1ccccc1	-7.2	0.756	60.1	-328.2	.	1.6	-2.2
CCn1cc(C(=O)NCc2ccc3c(c2)OCO3)c(=O)c2cc(F)c(N3CCN(C(=O)c4ccco4)CC3)cc21	10.6	0.052*	-19.6	-99.8	.	-2.5	1.4
COC(=O)c1cc2oc3ccccc3c2n1CC(=O)Nc1ccccc1OC	-1.4	0.733	3.9	-3.7	.	-2.6	-1.9
Cc1ccc(C(C)(C)NC(=O)C2CCC(=O)N(C3CCCCCC3)C2)cc1 (stereo unspecified)	1.9	0.702	1.0	5.3	i	2.3	-0.1
CC(=O)c1c(C)[nH]c(C(=O)O)c1C	-0.2	0.708	-2.8	1.5	i	3.7	-0.3
Cn1c(=O)c2c(nc(CN3CCC(C(N)=O)CC3)n2Cc2c(F)cccc2Cl)n(C)c1=O	-10.6	0.716	4.8	-1.0	.	-0.9	-1.1
O=C(Cc1ccc(Cl)cc1)Nc1ccccc1N1CCOCC1	-4.6	0.695	-6.9	1.5	.	-4.6	6.2
COCCn1nnnc1C(c1cccs1)N1CCCC(C)C1 (stereo unspecified)	0.9	0.663	-4.2	-0.5	i	0.9	-1.8
CCOc1ccc(Br)cc1S(=O)(=O)NC1=NCCCCC1	-1.1	0.709	-1.2	1.0	i	-4.1	0.9
O=C(Nc1ccccc1)c1ccc(S(=O)(=O)N2CCC(C(=O)O)CC2)cc1	-0.9	0.714	-1.1	1.6	i	-3.1	-2.0
COC(=O)[C@H]1Cc2c([nH]c3ccccc23)[C@H](c2ccccc2)N1	5.3	0.685	7.3	2.3	i	0.5	-1.4
CCc1c(C)sc(NC(=O)C2CCCCC2C(=O)O)c1C(N)=O (stereo unspecified)	6.5	0.713	.	-3.0	.	2.4	-4.5
Nc1cccnc1Sc1cc(Cl)c(Cl)cc1Cl	10.1	0.713	-13.2	6.1	.	-0.8	-3.0
Cc1ccccc1CC(=O)Nc1cccc(S(=O)(=O)N2CCCC2)c1	-6.9	0.716	-1.5	3.7	i	.	-0.8
CCn1c(SCC(=O)Nc2cc3oc4ccccc4c3cc2OC)nnc1-c1cccs1	-5.5	0.727	-2.4	0.6	.	3.7	1.8
O=C(NCCCNC(=O)c1cnccn1)c1ccc(Br)cc1	-0.3	0.651	-3.0	0.6	i	3.3	-1.6
COc1cc(CNC2CCCCCCC2)cc(Br)c1OCC#N	0.4	0.702	-2.4	5.6	i	-1.4	4.2
C=CCN1C(=O)C2(OCCCO2)c2cc(C)ccc21	0.6	0.667	8.1	-0.4	i	-5.7	2.1
COc1ccc(N(CC(=O)Nc2nccs2)S(=O)(=O)c2c(C)[nH]c(=O)[nH]c2=O)cc1	-7.0	0.684	-3.9	1.3	i	3.8	0.5
CC(C(=O)OCC(=O)c1cccc([N+](=O)[O-])c1)N1C(=O)C2C3C=CC(C3)C2C1=O (stereo unspecified)	-4.3	0.723	-12.1	4.3	i	-3.9	-3.4
COc1ccc(S(=O)(=O)NC(N)=NCCc2ccc(OC)c(OC)c2)cc1	.	0.683	-2.9	2.1	i	-0.4	.
CCOCC(=O)Nc1nnc(COc2ccc(Cl)cc2)s1	-5.2	0.653	-8.0	2.8	.	-0.7	-1.8
COc1ccc(-n2c(Cn3c(=O)sc4ccccc43)nnc2SCC(=O)N2CCCC2)cc1	-17.0	0.694	-12.7	2.2	i	0.2	5.9
O=C(NCc1ccccc1Cl)C1CCCN(S(=O)(=O)c2cnc[nH]2)C1 (stereo unspecified)	3.2	0.748	93.6*	3.7	i	-4.7	-0.4
COc1ccc(CN=Cc2c(O)[nH]c3ccccc23)cc1	-6.1	0.723	99.3*	8.2	.	-0.1	3.2

Sorted by the number under Ecoli growth (largest number first): some entries from above
molecule | Ecoli growth
CCn1c(SCC(=O)Nc2cc3oc4ccccc4c3cc2OC)nnc1-c1cccs1 | 0.727
COc1ccc(CN=Cc2c(O)[nH]c3ccccc23)cc1 | 0.723
Nc1cccnc1Sc1cc(Cl)c(Cl)cc1Cl | 0.713

(continued)
SMILES	Beta2AR agonist	Ecoli growth	ALR inh	UCH37 DUB inh	FGF22 binding	LANA-H2A inh	HNF4A DNA FP
COc1ccccc1OCc1cc(C(=O)N2CC3C[C@@H]4CC2C[C@H](C3)C4)no1	2.0	0.682	-75.5	0.3	i	-0.2	-1.7
CCCn1ncc(OC)c(Cl)c1=O	-1.9	0.72	-19.5	3.0	.	-3.7	-7.9
Cc1cc(NC(=O)CSc2nc(Cc3ccccc3)c(C)[nH]2)no1	8.4	0.667	-7.2	4.2	i	-8.0	1.8
O=c1sc2ccccc2c(N2CCCC2)c1[N+](=O)[O-]	-0.3	0.695	5.4	6.6	.	3.5	0.2
O=S(=O)(c1cccs1)N1CCN(c2ccccc2Cl)CC1	3.2	0.651	-3.1	1.4	i	1.0	4.5
O=C(NCC1CCCO1)C(=O)NCC(c1ccco1)N1CCN(c2ccc(F)cc2)CC1 (stereo unspecified)	18.5	0.675	59.1	5.7	i	-1.6	2.6
Cc1noc(C)c1COC(=O)c1ccc2ccccc2n1	0.1	0.671	1.4	1.3	.	2.7	0.2
CCCn1c(SCC(=O)N2CCCc3ccccc32)nnc1-c1ccco1	-11.1	0.665	-5.9	4.1	.	1.6	-1.8
Cc1ccc(S(=O)(=O)CC(=O)Nc2nccs2)cc1	-5.6	0.632	-6.4	1.4	i	-5.4	1.4
CCC(C)(C(=O)Nc1ccccc1C)N(C(=O)CNC(C)=O)c1ccc(C)cc1 (stereo unspecified)	-9.5	0.717	-3.2	2.7	.	3.4	2.0
Cc1ccc(C(=O)NNC(=O)C2CSC3(C)CCC(=O)N23)cc1 (stereo unspecified)	.	0.657	1.3	1.8	i	-8.4	-1.7
CC(=O)Nc1ccc(S(=O)(=O)N2CCNC(=O)CC2)cc1	2.5	0.703	2.4	-0.7	.	2.2	-1.0
COc1ccc(-c2nc(C#N)c(NCCc3ccccc3)o2)cc1	6.2	0.683	1.3	-16.1	i	-3.4	-2.0
COc1ccc(NC(=O)/C(C#N)=C/c2ccc(Sc3nncn3C)c([N+](=O)[O-])c2)cc1	17.0	0.697	30.8	3.1	i	-0.8	5.7
O=C(NCc1cccnc1)C(=O)NCC1OCCN1S(=O)(=O)c1ccccc1 (stereo unspecified)	-9.3	0.793	-3.8	2.1	i	-3.7	3.0
Cc1cccc(NC(=O)C(C)N2C(=O)c3ccccc3S2(=O)=O)n1 (stereo unspecified)	-3.1	.	1.5	.	.	-0.8	-2.0
CN1CCC2(CC1)N=C(c1ccc(F)cc1)C(=S)N2C(=O)c1ccc(C(C)(C)C)cc1	28.3	0.698	69.5	5.8	i	3.4	-3.4
COc1ccccc1-c1nnn(C/C(N)=N/O)n1	-10.7	0.667	3.2	0.1	i	-5.7	5.2
COc1ccc(-n2c(=S)[nH]c3cc(C(=O)Nc4ccccc4OC)ccc3c2=O)c(OC)c1	6.9	0.706	15.0	1.9	i	-1.3	-0.8
CC1CN(c2nc(Nc3ccccc3F)nc(N)c2[N+](=O)[O-])CC(C)O1 (stereo unspecified)	16.9	0.667	-17.0	8.2	i	0.4	1.6
CSc1ccccc1OCc1cc(C(=O)N(C)Cc2cnccn2)no1	0.4	0.692	-19.8	-1.5	i	0.0	3.9
O=C(Nc1cccc(Cl)c1)c1ccc(NCCCN2CCOCC2)c([N+](=O)[O-])c1	10.7	0.622	1.1	9.3	.	0.4	0.0
Cc1nonc1CN(C)C(=O)CC1C(=O)NCCN1Cc1c(F)cccc1Cl (stereo unspecified)	10.2	0.714	0.5	1.3	i	-0.4	-1.9
O=C(Nc1cccnc1)C1(F)C(F)(F)C(F)(F)C(F)(F)C(F)(F)C1(F)F	4.6	0.674	-30.9	3.9	.	-4.0	1.1
COc1ccccc1NS(=O)(=O)c1ccc(C(=O)NCC(c2ccccc2OC)N2CCCC2)cc1 (stereo unspecified)	-8.4	0.668	.	3.8	i	.	3.1
COC(=O)c1ccc(C(=O)OC)c(NC(=O)CSc2nc(-c3ccco3)cc(C(F)(F)F)n2)c1	-3.6	0.744	.	-9.1	.	.	-3.0
COc1ccccc1-c1cc(C(F)(F)F)nc(S(=O)(=O)CCCC(=O)NC(C)C)n1	98.4*	0.783	8.5	-17.7	.	3.4	0.1
O=C(NCCN1CCOCC1)/C(=C\c1ccc(F)cc1)NC(=O)c1ccccc1	5.6	0.671	-0.1	2.2	i	-2.4	4.2
O=c1cc(N2CCN(c3ccccc3)CC2)[nH]c(=O)n1-c1ccccc1	10.2	.	42.1	1.2	.	2.4	0.6
O=S(=O)(Nc1ccc(-n2cnnn2)cc1)c1cccs1	-0.3	0.66	0.1	2.1	i	3.7	5.2
N#Cc1ccccc1S(=O)(=O)N1CCN(C(=O)CN2C(=O)NC3(CCCC3)C2=O)CC1	-4.3	0.664	-5.1	2.5	i	-2.1	0.4
Cc1ccccc1-c1nnn(CC(=O)N(C)CC(=O)Nc2ccccc2C(F)(F)F)n1	-4.3	0.685	-5.1	2.2	i	5.7	2.9
CCc1c(C)nc2nc(SCc3ccccc3)[nH]n2c1=O	0.3	0.674	4.2	1.2	i	4.5	0.5
CC(=O)NC(CCS(C)(=O)=O)C(=O)Nc1nc(C)cs1 (stereo unspecified)	2.2	0.666	-7.0	5.0	.	-6.9	4.2
COC(=O)c1[nH]c(C)c(/C(O)=C2\C(=O)C(=O)N(CCN(C)C)C2c2ccc(C)o2)c1C (stereo unspecified)	1.8	0.725	-20.4	-4.7	.	-5.5	0.2
COc1ccccc1CNC(=O)CSc1nc(C)cs1	-0.4	0.705	-13.4	0.6	i	0.1	-0.1
COc1cc(CNc2ncn[nH]2)ccc1OCC(=O)NC(C)(C)C	-3.3	0.682	-2.6	0.6	i	1.8	-0.2
COc1cc2c(cc1OC)CN(C(=O)CNC(=O)c1ccc(OC(F)F)cc1)CC2	7.8	0.722	-9.7	4.6	i	-7.2	-0.1
CCO/N=C/C1=C(O)C(C(=O)OC)C(C)(C)CC1=O (stereo unspecified)	-5.0	.	-7.9	.	.	-1.6	0.3
N#CC1=C(N)Oc2cc(O)c(Cl)cc2C1c1ccccc1F (stereo unspecified)	-10.0	.	19.8	.	i	7.0	-4.0
Cn1c(=O)[nH]c(=O)c2c1nc(CN1CCOCC1)n2Cc1ccc(F)cc1	1.8	0.738	-35.8	4.9	i	-0.4	0.2
O=C(CC(=O)c1ccccc1)Nc1ccccc1	-4.2	0.557	23.0	5.5	i	-4.0	2.3
CN(C)c1cc(NC(=O)CNC(C)(C)C)c2ccccc2n1	-5.3	0.621	-6.8	-41.6	i	2.8	-5.6
Cc1ccc(C)c(OCCC(=O)Nc2ccccc2C(=O)NC2CC2)c1	-2.8	0.691	-1.4	5.9	i	-3.7	-3.3
CCN1CCN(CCCNC(=O)c2ccc3c(c2)NC(=O)c2ccccc2S3)CC1	3.6	0.755	.	3.1	i	8.0	-2.1
CON1C(=O)C(=O)N(OC)C(C)(C)C1(C)C	-7.5	0.69	-2.2	-2.2	i	-2.7	1.6
O=C(COC(=O)CCc1nc2ccccc2c(=O)[nH]1)Nc1ccccc1	1.9	0.652	.	-0.8	i	24.4*	-4.0
Cc1cc(C)c(C#N)c(N2CCN(Cc3ccccc3)CC2)n1	-3.3	0.713	.	-1.4	.	.	-2.2

Screens: PubChem, several laboratories

The list is partial. The share of hits here may be higher or lower than overall.
